Bioassay records as filed in PubChem BioAssay.
Anaer choline gr = blocks anaerobic gram-negative growth on choline | Gram-negative bacterium anaerobic choline minimal medium, absorbance growth; active compounds read low; many inactives read as strong as hits in the columns shown | calls only | 55,000 compounds, 0.2% hits | AID 1963822;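 active means growth z-score on choline under -2 at 7 or 20 h with little or no fall on glycerol, limits in tiers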;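 further: stock transfer was 300 nL into about 50 µL; the organism is E. coli; final concentration not given here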
Anaer choline gr early = second read-out of Anaer choline gr, no call of its own (marks repeat the call); z-score; measured here: choline growth z-score, timepoint 1;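 score of optical density at 7 h as mean of two plates; lower means less growth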
* = called active by the depositor; i = inactive; & = joins results of further samples. This is a subset; rates above refer to the full screens.

SMILES | Anaer choline gr | Anaer choline gr early
CCCn1c(C)ccc(-c2noc(CCCC(=O)NCc3ccc(C)cc3)n2)c1=O | i | 1.1
CCNc1oc(-c2ccc(S(=O)(=O)N3CCC(C)CC3)cc2)nc1C#N | i | -0.85
COc1cc(OC)cc(C(=O)N2CCc3c(c(C(=O)N4CCCC(C(=O)NC5CC5)C4)nn3C)C2)c1 (stereo not given) | i | -0.17
Cc1nc2ccc(S(=O)(=O)NC(CC(C)C)C(=O)N3CC=C(c4ccccc4)CC3)cc2s1 (stereo not given) | i | 0.93
CCc1ccc(S(=O)(=O)c2cnc(N3CCN(c4cccc(C)c4)CC3)nc2N)cc1 | i | 1.8
CCOC(=O)CC1(NC(=O)N2CCC3(CC2)Nc2cc(OC)ccc2-n2cccc23)CCCCC1 | i | 0.49
C=CCNC(=O)Cn1nc(N2CCN(c3ccccc3OC)CC2)ccc1=O | i | -0.57
O=C(Nc1cnn(-c2ncc(N3CCSCC3)cn2)c1)C1CCCC1 | i | 0.62
Cn1c2cn(-c3ccc(F)cc3)c(-c3ccccc3)c2c(=O)n1-c1ccccc1 | i | -1.6
Clc1ccc(C(c2ccccc2Cl)C(Cl)Cl)cc1 (stereo not given) | i | 0.87&-0.05
Cc1ccc(S(=O)(=O)N2C(=O)CCC2C(=O)NCc2nc(-c3ccc(Cl)cc3)no2)cc1 (stereo not given) | i | 0.12
Cc1cc(=O)c2cc(C(=O)Nc3ccccc3C)ccc2[nH]1 | i | -0.65
O=C(NC1CCCC1)N1CCC(n2cnc3cccnc32)CC1 | i | -0.93
CCC(C)NC(=O)C1CCN(S(=O)(=O)c2cn(C(C)C)cn2)CC1 (stereo not given) | i | 0.56
COC(=O)c1c(-c2ccc(Cl)cc2)noc1Nc1ccccc1OC | i | 1.4
O=S(=O)(c1ccc(F)cc1)N1CCc2nc[nH]c2C1 | i | -2.5
COc1ccc(-c2nnc3sc(-c4c[nH]c5ccccc45)nn23)cc1 | i | -0.15
O=C1N(Cc2cccc(Cl)c2)c2ccccc2S(=O)(=O)N1c1ccc(Cl)cc1 | i | 0.92
O=C(c1nc(-c2ccccc2)n(-c2cccc(Cl)c2)n1)N1CCOCC1 | i | -0.52
COc1ccc(S(=O)(=O)Nc2cc(C(=O)O)cnc2N2CCCC2)cc1 | i | -0.05
O=C1Nc2ccccc2C1Cc1ccc(Br)cc1 (stereo not given) | i | -1.2
CS(=O)(=O)NC1CCCN(c2cc(N3CCCC3)ncn2)C1 (stereo not given) | i | -0.08
CCCc1nnc(-c2cccs2)o1 | i | -4.4
CCN(CC)C(=O)Cn1c(=O)n(Cc2ccc(F)cc2)c(=O)c2c1c(C)nn2CC | i | -0.61
O=S(=O)(c1ccc(Br)s1)N1CCCCCC1c1cccs1 (stereo not given) | i | 1.1
O=S1(=O)CCC(S(=O)(=O)NC2CCCCC2)C1 (stereo not given) | i | -0.34
O=C(Nc1cccc(F)c1)N1CCN(Cc2cc(=O)n3nc(-c4ccc(F)cc4)sc3n2)CC1 | i | -0.12
O=C(CCCc1nnc2c(=O)n(-c3cccc(F)c3)ccn12)N1CCN(c2ccccn2)CC1 | i | -1.7
NC(=O)C1(N2CCCCC2)CCN(c2ccc(NC(=O)C3CCCC3)c(C(=O)O)c2)CC1 | i | 0.44
O=S1(=O)N=CNc2ccc(S(=O)(=O)N3CCCCC3)cc21 | i | 1.2
CCc1cc(Sc2ccc(NC(=O)Nc3ccc4c(c3)OCCO4)cc2)n2nc(C)nc2n1 | i | -0.4
CCOC(=O)Cn1c(=O)c2c(nc3n2CC(C)CN3c2ccc(Br)cc2)n(C)c1=O (stereo not given) | i | 0.48
Cc1ccc(S(=O)(=O)NC2CCN(C(=O)CN3C(=O)COc4ccccc43)CC2)cc1 | i | -0.31
CC(=O)Nc1c(C)noc1/C=C/c1ccc(S(=O)(=O)N2CCC(C)CC2)s1 | i | -0.67
NC(=O)c1nc(-c2cccnc2)nc2c1[nH]c(=O)n2-c1ccccc1 | i | -1.3
C=CCn1c(=S)[nH]c2nc(N(CC)CC)sc2c1=O | i | -0.46

Arranged by SMILES length (descending): 15 of the compounds above
SMILES | Anaer choline gr | Anaer choline gr early
O=C(Nc1cccc(F)c1)N1CCN(Cc2cc(=O)n3nc(-c4ccc(F)cc4)sc3n2)CC1 | i | -0.12
NC(=O)C1(N2CCCCC2)CCN(c2ccc(NC(=O)C3CCCC3)c(C(=O)O)c2)CC1 | i | 0.44
Cc1ccc(S(=O)(=O)NC2CCN(C(=O)CN3C(=O)COc4ccccc43)CC2)cc1 | i | -0.31
CCOC(=O)Cn1c(=O)c2c(nc3n2CC(C)CN3c2ccc(Br)cc2)n(C)c1=O (stereo not given) | i | 0.48
CCN(CC)C(=O)Cn1c(=O)n(Cc2ccc(F)cc2)c(=O)c2c1c(C)nn2CC | i | -0.61
CC(=O)Nc1c(C)noc1/C=C/c1ccc(S(=O)(=O)N2CCC(C)CC2)s1 | i | -0.67
O=C(c1nc(-c2ccccc2)n(-c2cccc(Cl)c2)n1)N1CCOCC1 | i | -0.52
COc1ccc(S(=O)(=O)Nc2cc(C(=O)O)cnc2N2CCCC2)cc1 | i | -0.05
O=S1(=O)N=CNc2ccc(S(=O)(=O)N3CCCCC3)cc21 | i | 1.2
CS(=O)(=O)NC1CCCN(c2cc(N3CCCC3)ncn2)C1 (stereo not given) | i | -0.08
O=S(=O)(c1ccc(Br)s1)N1CCCCCC1c1cccs1 (stereo not given) | i | 1.1
C=CCn1c(=S)[nH]c2nc(N(CC)CC)sc2c1=O | i | -0.46
O=S1(=O)CCC(S(=O)(=O)NC2CCCCC2)C1 (stereo not given) | i | -0.34
O=C1Nc2ccccc2C1Cc1ccc(Br)cc1 (stereo not given) | i | -1.2
CCCc1nnc(-c2cccs2)o1 | i | -4.4

The list continues.
SMILES | Anaer choline gr | Anaer choline gr early
C[C@@H](NCc1cc(Br)cc2[nH]c(=O)c(=O)[nH]c12)P(=O)(O)O | i | 0.08
COc1cc(-c2ccc(C)cc2)nc2ccc(C(=O)N3CCN(c4ccccn4)CC3)cc12 | i | -1.6
O=C(NCCC1=CCCCC1)c1c(-c2ccc(F)cc2)nc2n1CCS2(=O)=O | i | 0.81
CCOC(=O)C1CCN(C(c2ccccc2)c2c(O)cc(C)n(Cc3ccccc3)c2=O)CC1 (stereo not given) | i | 0.03
O=C(O)CN1CC(=O)Oc2ccc(Cl)cc21 | i | 0.07
c1ccc(N2CCN(c3nnc(-n4cccc4CN4CCN(c5ccccn5)CC4)s3)CC2)cc1 | i | -2.4
Cc1oc(-c2cccc(Cl)c2)nc1Cn1nnc(-c2nc(-c3ccccc3)no2)c1C | i | -0.8
Cc1ccc(N2CCN(S(=O)(=O)c3ccc(-c4nnc(C5CCC5)o4)o3)CC2)cc1 | i | 2.1
Cc1cc(NC(=O)CN2c3ccccc3NC3=C(C(=O)CC(C)(C)C3)C2c2ccccc2)no1 (stereo not given) | i | 0.7
COC(=O)CC1=CC(=O)N(CC(=O)Nc2ccc3c(c2)CCC3)c2ccccc2N1 | i | 0.08
COc1ccc(-c2nn3c(NCCN4CCOCC4)cc(C)nc3c2C)cc1OC | i | -0.1
CC1(C)C(=O)N(CC(=O)N2CCc3ccccc3C2)c2ccc(S(=O)(=O)N3CCCCC3)cc21 | i | 0.15
CC1CCN(CCCNC(=O)C2CCc3sc(C(=O)N(C)C)cc3C2)CC1 (stereo not given) | i | 0.32
COc1ccc(Br)cc1-c1nc(CSc2nc3ccccc3c(=O)n2C)c(C)o1 | i | -0.73
Cc1cc2n(n1)CCC(=O)N2CC(=O)NC1CCCCC1 | i | -1.1
CCOC(=O)C1CCN(C(=O)c2cccc3c2C(=O)N(C2CCCCC2)C3)CC1 | i | -0.71
O=C(CSc1nnc(-c2ccncc2)n1C1CCCCC1)Nc1ncc2c(n1)CC(c1ccccc1)CC2=O (stereo not given) | i | 0.31
Cc1ccc2nc(C3CC(=O)N(c4ccccc4)C3)[nH]c2c1 (stereo not given) | i | 0.13
CCCn1c(=O)c2ccccc2n2c(SCC(=O)NCc3ccccc3Cl)nnc12 | i | 1.5
CCCCC[C@H](O)/C=C/[C@@H]1[C@@H](CCCCC(CC(=O)O)OC)[C@@H](O)C[C@H]1O (stereo not given in full) | i | -1
O=C(Cn1nc(C(=O)N2CCc3ccccc32)ccc1=O)NCC1CCCO1 (stereo not given) | i | 0.07
CCNS(=O)(=O)c1cc(-c2ccno2)sc1C | i | -1.6
Cc1ccc(-c2noc(C3CC3)n2)cc1-n1cc(C(=O)N2CCc3ccccc32)c(C)n1 | i | -0.06
CCN(CCCNC(=O)C1CCCN(c2ncnc3c2oc2ccccc23)C1)c1ccccc1 (stereo not given) | i | 0.35
O=C(NCCc1ccccc1)Nc1c(-c2cccnc2)[nH]c2ccccc12 | i | 1.4
Cn1c(SCc2cc(=O)n3ccccc3n2)nc2cc(-c3ccccc3)sc2c1=O | i | 0.91
COc1ccc(OC)c(-c2csc(-c3nnn(-c4ccc(F)cc4)c3N)n2)c1 | i | 0.13
O=S1(=O)C[C@H](N2CCOCC2)[C@@H](S(=O)(=O)c2ccc(F)cc2)C1 | i | 0.22
O=C(Cc1nnc(NC(=O)Nc2ccccc2Cl)s1)NCc1ccccc1 | i | 0.19
Cn1c(=O)n(C)c2cc(NS(=O)(=O)c3ccccc3Br)ccc21 | i | 0.18
CCCCNC(=O)C1=Cc2ccc(C)cc2OC=C1 | i | 1.4
Cn1c(=O)n(C)c2cc(Sc3ccccc3)c(NS(C)(=O)=O)cc21 | i | 0.08
Cc1cc(N2CCCCC2C)n2nc(-c3ccccc3C)nc2n1 (stereo not given) | i | 0.51
Cc1ccc(NC(=O)CCn2cnc3cc(S(=O)(=O)N(C)C)ccc32)cc1C | i | 1.1
CCc1cc2c(N3CCCC(C(=O)NC4CC4)C3)ncnc2s1 (stereo not given) | i | -1.1
O=S(=O)(Cc1ccc(-c2nc(-c3cccs3)no2)o1)c1ccc(Cl)s1 | i | 0.52
O=C(NCc1ccncc1)C1CCCN(c2ncnc3c2oc2ccccc23)C1 (stereo not given) | i | -0.47
CCOc1ccc(-c2nonc2NC(=O)COc2ccc(Br)cc2)cc1C | i | -0.65
Clc1ccccc1OCc1nn2c(CSc3ccccc3)nnc2s1 | i | 0.26
Cc1ccc2c(c1)c(=O)n(CCCOC(C)C)c1nnc(SCc3ccc(F)cc3)n21 | i | 0.31
CN1CCC(N2CCN(c3ncccc3-c3nnc(-c4ccc(Cl)cc4)o3)CC2)CC1 | i | -0.3
CC1=C(C(=O)Nc2ccccc2C(=O)NCCc2c[nH]c3ccccc23)SCCO1 | i | -0.16
CC1CN(C2CCCCC2)c2nc3c(c(=O)n(CC(=O)O)c(=O)n3C)n2C1 (stereo not given) | i | 0.49
NS(=O)(=O)c1ccc(CCNC(=O)C2=Cc3sc4c(c3CS2)CCCC4)cc1 | i | -0.66
CCOC(=O)C1CSC(Cc2ccc(OCc3ccc([N+](=O)[O-])cc3)cc2)N1 (stereo not given) | i | 0.57
O=C(NC1CCCC1)C1CCN(c2cnc(N3CCCC3)nc2)CC1 | i | -0.33
CCN(CC)c1ncc2c(n1)CCC(C(=O)N(C)C1CCN(C)CC1)C2 (stereo not given) | i | 0.05
CCCCc1ccc(NC(=O)CN2C(=O)C=C(CC(=O)OC)Nc3ccccc32)cc1 | i | 0.34
COc1cccc(NC(=O)N2CCN(c3nc4cccnc4n(Cc4ccccc4)c3=O)CC2)c1 | i | 1.8
O=C(Cn1nc(N2CCN(c3ccccc3)CC2)ccc1=O)NCc1ccc2c(c1)OCO2 | i | -0.62
Nc1nc(Cl)nc2c1ncn2[C@H]1C[C@H](O)[C@@H](CO)O1 | i | -2.4
COc1ccc(C(=O)N2CCc3c(c(C(=O)N4CCCC(C(=O)NC5CC5)C4)nn3C)C2)c(OC)c1 (stereo not given) | i | -0.36
Cc1ccc(NC(=O)COC(=O)CSc2nc3ccccc3n2Cc2ccccc2)c(C)c1 | i | 0.16
COc1cc2c(=O)n(Cc3ccc(C(=O)NC(C)C)cc3)c(=O)n(CC(=O)NCCC(C)C)c2cc1OC | i | 0.28
Cc1ccc(-c2[nH]nc3c2C(C(=O)c2ccc4c(c2)OCCO4)CC(=O)N3)cc1 (stereo not given) | i | 0.39
Cc1nc(-c2cccc(NC(=O)C3CC(=O)N(c4cccc(Cl)c4)C3)c2)no1 (stereo not given) | i | 1.3
CCC(CC)C(=O)N1CCC2(CC1)Nc1cc(F)ccc1-n1cccc12 | i | -0.78
Cc1ccc(C2=Nc3ccccc3N=C(c3cc(C)ccc3O)C2)cc1 | i | -1.5
CCN1CCN(c2ncnc3sc(C(=O)NCCc4c[nH]c5ccc(Cl)cc45)c(C)c23)CC1 | i | 0.22
CCOC(=O)c1[nH]c(C)c(S(=O)(=O)N2CCC(C)CC2)c1C | i | 1.2
Later entries
SMILES | Anaer choline gr | Anaer choline gr early
CC(C)Cc1csc(-c2csc(S(=O)(=O)NCc3cccs3)c2)n1 | i | 1.9
COC(=O)CSC1=NS(=O)(=O)c2cc(F)ccc2N1 | i | -0.19
O=C(CSc1nnc2n(CCC(=O)NC3CCCC3)c(=O)c3ccccc3n12)NCC1CCCO1 (stereo not given) | i | -0.4
COC(=O)CSc1nnc2n1CCN2c1ccc(F)cc1 | i | -0.67
CCCCNS(=O)(=O)c1ccc(OCC)c(-c2nc(C)no2)c1 | i | -0.66
COc1ccc(S(=O)(=O)N2CCC3(CC2)Nc2cc(F)ccc2-n2cccc23)cc1OC | i | 0.05
CCc1ccc(NC(=O)N2CCN(c3nc4cccnc4s3)CC2)cc1 | i | -0.48
c1ccc(-c2nnc(Cc3ccc4c(c3)OCO4)o2)cc1 | i | 1.5
C=Cc1ccc(Cn2nc3n(CC(C)C)c(=O)c4ccc(C(=O)NCC(C)C)cc4n3c2=O)cc1 | i | 1.2
CCc1nnc2n1CCN(Cc1cn(C)nc1C)C2 | i | -0.12
Cc1nn(-c2ccc(-c3ccccc3)nn2)c(C)c1S(=O)(=O)NCc1ccccc1 | i | 1.5
COC(=O)c1cccc(C(=O)Nc2ccc(Cl)cc2C)n1 | i | -0.21

Complete entries, quoted from the list. Order of screens: Anaer choline gr, Anaer choline gr early
CCN(CCCNC(=O)C1CCCN(c2ncnc3c2oc2ccccc23)C1)c1ccccc1 (stereo not given) as listed: i, 0.35
Cc1cc(NC(=O)CN2c3ccccc3NC3=C(C(=O)CC(C)(C)C3)C2c2ccccc2)no1 (stereo not given) as listed: i, 0.7
